Screening results as filed in PubChem BioAssay.
AID504770: growth inhibitors of E. coli YBA685 in a screen for V. cholerae RctB (chromosome II replication) inhibitors; E. coli YBA685 rctB-dependent plasmid, OD600 growth, 3 h; hits give low values; z-score (test concentration not listed); 0.27% of 130,000 active; AID 504770;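 active = z-score under -2 on both plates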;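 note: wells of about 30 µL received 100 nL stock; score is relative to mean and SD of the test wells; the first replicate is given; strong numbers were not always called active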
CapD inh: inhibitors of Bacillus anthracis CapD enzyme; z-score (no concentration beside the values); 0.23% of 140,000 active; purified CapD enzyme, fluorescence intensity read-out; hits give low values; some hits fall short of the stated cut;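 active = z-score under -4 in either of two replicates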;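 note: stock transfer was 100 nL into about 40 µL; score is relative to mean and spread of the plate; one replicate is shown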
* hit, by the source's call; i = inactive; nt = not tested or not shown. Rows are unselected (roughly 0.39% active in at least one column).

SMILES	AID504770	CapD inh
Cc1ccc(S(=O)(=O)CCC#N)cc1	-0.7	-1.3
CN(C(=O)CSc1cccc[n+]1[O-])C1CCCCC1	-0.6	0.41
Cc1ccccc1C(=O)c1cccn1CC(=O)NC1CCCCCC1	0.4	-0.19
Cc1ccc(Cc2ccc(=O)[nH]n2)cc1	0.15	-0.22
CC(C)CN(CC(C)C)S(=O)(=O)N1CCC(C(=O)NCc2cccnc2)CC1	0.1	-0.11
CCOC(=O)c1ccc(Oc2nc(OC)nc(N(C)C)n2)cc1	nt	0.09
N#Cc1ccc(NC(=O)c2ccco2)cc1	-0.5	0.32
O=c1/c(=C/c2cc(-c3ccccc3)n(-c3ccc([N+](=O)[O-])cc3)c2-c2ccccc2)sc2nc3ccccc3n12	nt	-0.06
Cc1cc(Br)ccc1SCC(=O)OCC(=O)Nc1cc(F)ccc1F	0.7	0.75
Cc1cnc(C(=O)Nc2cccc3ncccc23)cn1	-1.1	nt
CN(C)c1nnnn1-c1ccccc1	0.95	0.57
CCOc1cccc(/C=N/NC(=O)c2cc(-c3cccn3C)n[nH]2)c1O	-0.4	0.26

Among those listed so far, two have an aryl thioether with sulfur outside any ring.
SMILES	AID504770	CapD inh
CN(C(=O)CSc1cccc[n+]1[O-])C1CCCCC1	-0.6	0.41
Cc1cc(Br)ccc1SCC(=O)OCC(=O)Nc1cc(F)ccc1F	0.7	0.75

The results go on:
SMILES	AID504770	CapD inh
CCOC(=O)c1ccc(NC(=O)c2sc(NC(=O)c3ccc(OC)cc3)c(C(=O)OCC)c2C)cc1	nt	4.4
COc1ccc(-c2nc3ccc(C(=O)NCCC4=CCCCC4)cc3nc2-c2ccc(OC)c(OC)c2)cc1OC	nt	-0.04
CCOP(=S)(OCC)C(Nc1ccccc1)c1ccccc1 (stereo unspecified)	-0.2	-0.07
O=C(COc1ccc2cc(Br)ccc2c1)NC(=O)NCc1ccco1	1.8	nt
CN1CCc2c(n(CC(O)CNC3CCCC3)c3ccccc23)C1=O (stereo unspecified)	0.35	3.9
Cc1ccccc1NC(=O)Nc1ccc(OCc2ccccc2)cc1	0.85	0.28
CC1CCCCC1NC(=O)c1cc2c(s1)CSC2 (stereo unspecified)	-0.35	19
NC(=O)/C=C/C(=O)Nc1ccc(N2CCOCC2)cc1	0.8	-0.37
O=C(NC(O)C(=O)c1ccccc1)c1ccco1 (stereo unspecified)	-0.85	0.18
CCC(CC)=NNC(=O)c1cc(-c2ccccc2)n[nH]1	0.05	nt
O=C(O)c1cnn(-c2ccc(Cl)cc2)c1C(F)(F)F	nt	-0.085
O=S(=O)(Cc1nn[nH]n1)c1ccccc1	0.2	0.07
CSc1sc(C(=O)NNC(=O)c2ccc(C)nc2Cl)c2c1C1(CCC2)SCCS1	nt	-1.5
O=C1c2ccccc2NC(c2ccc3c(c2)OCCO3)N1CCc1ccccc1 (stereo unspecified)	-1.1	nt
CN(N)C(=S)NC(C)(C)C	nt	-0.24
CCC(C)(C(=O)NC1CCCC1)N(C(=O)Cc1cccs1)c1c(C)n(C)n(-c2ccccc2)c1=O (stereo unspecified)	-0.9	0.06
CC(C)(C)C(=O)/C=C(/N)c1ccncc1	-0.35	-2.2
CCOc1ccc(C2CCCN2Cc2nc(N)nc(Nc3ccccc3)n2)cc1 (stereo unspecified)	-0.8	nt
CC(C)NC(=O)c1ccc2c(c1)nnn2C	-0.5	nt
Cc1nc(C(F)(F)F)ccc1C(=O)Nc1ccccc1-c1ccccc1	-1.3	0.17
Cc1ccc(C2(C#N)C(=O)Nc3ccccc32)c(C)c1 (stereo unspecified)	0.3	-0.91
CCOc1cc(Br)c(/C=c2/sc3nc4ccccc4n3c2=O)cc1OC	nt	-1.4
CC1(C)Cc2c(C#N)c(NC3CCCCC3)nc(-c3ccco3)c2CO1	0	-0.35
Cc1cccc(Cc2c(C)c3c(C)[nH]nc3oc2=O)c1	-0.85	7.7
Cc1ccc(-c2nc3nc(-c4ccc(F)cc4)cn3nc2-c2ccc(C)cc2)cc1	nt	2.5
FC(F)(F)c1ccccc1-n1nnnc1-c1ccc(Cl)cc1Cl	0	-0.015
O=C(Oc1ccc([N+](=O)[O-])cc1)OC12CC3CC(CC(C3)C1)C2	nt	-0.34
C/C(=N\NC(=O)Cc1c(C)[nH]c(=O)[nH]c1=O)c1ccc(Br)cc1	0.15	nt
CN(C)c1ccc(/C=C2/C(=O)c3ccc(C(=O)O)cc3C2=O)cc1	0.2	-2.6
Cn1c(/N=C/c2c(O)ccc3ccccc23)nc2ccc(Br)cc21	0.95	0.095
Cc1ccc(C(C)NS(=O)(=O)c2ccc3c(c2)CN(C(=O)C(F)(F)F)CC3)cc1 (stereo unspecified)	nt	-0.16
CC(C)CCNC1=NCCCCC1	-0.8	nt
NC(=O)COC(=O)c1oc2ccccc2c1COc1ccccc1	-0.7	nt
CCOC(=O)c1ccc(NCc2ccccc2Oc2ccc(F)c(F)c2)cc1	nt	0.67
COc1ccc(Cc2nc(-c3ccc(Cl)cc3)cs2)cc1	nt	0.005
CCOc1cc(C2Nc3ccccc3-c3nnc(SCC)nc3O2)ccc1O (stereo unspecified)	nt	-0.4
CCSc1nnc2c(n1)OC(C(=O)c1ccccc1)Nc1ccccc1-2 (stereo unspecified)	-0.75	-0.1
O=C(c1cn[nH]c1)N1CCN(CCCC(c2ccc(F)cc2)c2ccc(F)cc2)CC1	nt	0.12
COc1ccc(-c2c(C#N)c(SCC(N)=O)nc(C)c2C(=O)Nc2ccccc2)cc1	nt	-0.79
CCOC(=O)CC(=O)CSc1nc2c(sc(=S)n2-c2cccc(OC)c2)c2nc3ccccc3n12	nt	-0.28
CC(C)(C)c1cc2nc(C(F)(F)F)cc(N3CCN(C(=O)OCCN4CCN(Cc5cc6ccccc6o5)CC4)CC3)n2n1	nt	85
Cc1ccc(C(=O)NNC(=O)c2cc3cc4ccccc4nc3s2)cc1	nt	0.45
CCOC(=O)C1CCCN(C(=O)Nc2ccccc2)C1 (stereo unspecified)	-0.2	0.06
Cc1ccc(-n2ncc3c(=O)[nH]c(SCc4ccccc4F)nc32)cc1C	-0.1	0.35
COC(=O)CSc1ccc2nnc(-c3cccnc3)n2n1	1.5	nt
CCOc1ccccc1NCC(=O)Nc1cc(C)ccc1Cl	-0.65	-1.5
COCCn1c(SC)nnc1-c1ccccc1	-0.5	nt
CCOC(=O)c1ccc(N=C(N)SCc2ccc(Cl)cc2)cc1	-0.8	-0.065
COc1ccc(C(=O)NCCc2cn3ccccc3n2)cc1	0.65	nt
O=C1c2ccccc2C(=O)N1CCc1ccccc1	-0.35	0.22
N#CCC(=O)c1cccc(Cl)c1	nt	-0.12
CCc1ccc(CN(C)CCc2ccccn2)cc1	0.65	-0.11
CCOC(=O)C1=C(C)N=c2s/c(=C/c3ccc(N(C)C)cc3)c(=O)n2C1c1ccc(OC(C)=O)cc1 (stereo unspecified)	nt	-0.65
c1ccc(CCSc2nnc(-c3ccncc3)n2-c2ccccc2)cc1	nt	-0.095
O=C1N=C(c2ccccc2)S/C1=C\c1cccs1	0.05	-0.085
Cc1nc(C(=O)Nc2ccc(Cl)cc2)nn1-c1cc(Cl)ccc1Cl	nt	0.18
CSc1nncn1/N=C/c1ccc(Br)cc1	1.2	0.14
O=C(CSCC(=O)c1ccc(Br)cc1)c1ccc(Br)cc1	nt	0.005
COC(=O)CN(C)S(=O)(=O)c1ccc(Br)cc1	2.2	-1.5
CC(Sc1nnc2c(Cl)cc(Cl)cn12)C(=O)NCc1ccco1 (stereo unspecified)	-0.05	nt
(more compounds)
SMILES	AID504770	CapD inh
CN(C(=O)C1C2CCCC1C2c1ccccc1)c1ccc(O)cc1 (stereo unspecified)	nt	0.1
CC(=O)Oc1ccc2occ(C(=O)CCN(C)C)c2c1	-0.4	-0.18
COc1ccc(CCNC(=O)C2(C)CCC(=O)N2CCC(C)C)cc1OC (stereo unspecified)	-0.7	-0.49
O=C(Nc1nc2c(ccc3ccccc32)s1)C1CC1	-1.4	i
C=CCn1c(C)csc1=Nc1ccc(C(=O)OCC)cc1	-0.15	nt
CCC(=O)NCCc1nc2ccccc2n1CC	-0.9	-0.29
CCOC(=O)CN1C(=O)S/C(=C\c2ccccc2OCc2ccccc2F)C1=O	-0.15	0.78
Cc1ccc(NC(=O)c2cc(C)oc2C)c(Br)c1	-1.9	nt
O=C(NNC(=O)c1ccccc1O)OCc1cccc(OCc2ccccc2)c1	nt	2.4
COCCNc1nc(SCc2ccc([N+](=O)[O-])cc2)nc2ccccc12	nt	-0.005
CCN1CCN(Cc2nnnn2C(C)(C)C)CC1	-0.8	nt
O=C1CN(C(=O)CSC2=Nc3ccccc3CS2)c2ccccc2N1	2.1	nt

One compound at a time (already shown). Screens in order: AID504770, CapD inh
Entry for CCN1CCN(Cc2nnnn2C(C)(C)C)CC1 → -0.8, nt
Entry for COc1ccc(CCNC(=O)C2(C)CCC(=O)N2CCC(C)C)cc1OC (stereo unspecified) → -0.7, -0.49
Entry for CCOC(=O)CN1C(=O)S/C(=C\c2ccccc2OCc2ccccc2F)C1=O → -0.15, 0.78
Entry for CC(=O)Oc1ccc2occ(C(=O)CCN(C)C)c2c1 → -0.4, -0.18
Entry for CN(C(=O)C1C2CCCC1C2c1ccccc1)c1ccc(O)cc1 (stereo unspecified) → nt, 0.1

Further records.
SMILES	AID504770	CapD inh
COc1ccc(-c2nnc3c4ccccc4c(C)nn23)cc1S(=O)(=O)NC(C)(C)C	0.45	7.7
CCc1ccc(S(=O)(=O)c2cn(CC)c3ccccc3c2=O)cc1	1.8	0.07
CC1(NC(=S)Nc2ccc(O)cc2)CCS(=O)(=O)C1 (stereo unspecified)	-0.05	0.56
Cc1c(CCC(=O)NCc2ccc3c(c2)OCO3)c(=O)oc2cc3occ(C(C)(C)C)c3cc12	0.4	9.6
Cc1ccc(NC(=O)C(CC(C)C)NS(=O)(=O)c2ccc3c(c2)CCCC(=O)N3)cc1 (stereo unspecified)	-0.75	0.035
CCCNC(=O)Cn1c(=O)oc2cc(S(=O)(=O)N3CCCC3)ccc21	-2.4	0.11
O=C1c2cccnc2C(=O)N1Cc1ccc(F)cc1S(=O)(=O)N1CCCC1	0.35	0.32
S=C(Nc1ccccc1)N1CCn2cccc2C1c1cccnc1 (stereo unspecified)	-0.1	nt
CSCC(CSC)OC(=O)c1c(-c2c(Cl)cccc2Cl)noc1C	-0.55	0.03
COc1cc(CN(C(=O)/C(=C/c2cccnc2)NC(=O)c2ccccc2)C2CCCCC2)ccc1O	-0.35	0.6
C#CCCN1CCN(C(=O)Nc2ccc(F)cc2)CC1	0.05	0.92
CCCCCCCCOc1ccc(-c2ncc(CCCCCC)cn2)cc1	nt	-0.24
Cc1cc(C)c(C#N)c(SCc2[nH]nc3c2[C@@H](c2ccccc2[N+](=O)[O-])C(C#N)=C(N)O3)n1	nt	2.4
CC(C)/C(N)=N/OC(=O)c1ccc(I)cc1	-1	nt
CCOC(=O)c1cnc2ccc(OCC)cc2c1Nc1ccccc1C(=O)OC	nt	-0.59
COCCn1c(SCC(=O)c2ccc3c(c2)OCCO3)nc2ccccc2c1=O	-0.1	nt
CC(=O)N1C(=O)/C(=C2\SC(=S)N(c3c(C)n(C)n(-c4ccccc4)c3=O)C2=O)c2ccccc21	nt	0.48
CCOC(=S)SCc1ccc(C(=O)Oc2ccc(F)cc2F)cc1	-1	0.2
NCCCNc1ccc(C(F)(F)F)cn1	-0.25	4.4
O=C1c2ccccc2-c2nn(C(=O)C3CCCCC3)c3cccc1c23	-0.75	1.1
CN(Cc1ccccc1)C(=O)CN1CCCC1=O	-0.3	-0.18
CC1=CC(C)C2COC(c3ccccc3OCc3ccccc3)C1C2C (stereo unspecified)	-0.4	0.23
COc1ccc(CN=Cc2c(O)[nH]c3ccccc23)cc1OC	-0.8	-1.8
CCCNC(=O)c1ccccc1NC(=O)c1ccco1	-0.2	0.24
CCOc1nc(NCCN2CCOCC2)nc(Nc2ccc([N+](=O)[O-])cc2)n1	nt	0
CCN(CC(=O)NCc1ccc(Cl)cc1)CN1C(=O)C2CC=CCC2C1=O (stereo unspecified)	0.35	nt
COCCCN=C1NC(=O)C(CC(=O)Nc2ccccc2Cl)S1 (stereo unspecified)	nt	0.79
COc1ccc(NC(=O)CSc2nc3n[nH]c(C)c3c(=N)n2-c2ccc(Cl)c(C)c2)c(OC)c1	nt	0.45
O=C1/C(=C/c2cccs2)CSc2ccc(F)cc21	-0.5	-1.1
CCOC(=O)c1c(NC(=S)Nc2ccc(C)cc2)sc2c1CC(C)(C)OC2	nt	-0.16
CS(=O)(=O)c1cccc(C(=O)Nc2ccnn2C2CCCC2)c1	-0.55	nt
Cc1cccc(C(=O)N2N=C(C(F)(F)F)CC2(O)c2cccc([N+](=O)[O-])c2)c1 (stereo unspecified)	nt	-0.26
Fc1ccc2nc3c(nc2c1)c1ccccc1n3Cc1cccc(C(F)(F)F)c1	nt	0.66
Cc1cc(C)c(C)c(S(=O)(=O)NCCN(C)C)c1C	nt	-0.74
N=C1SCC(=O)N1c1nc(-c2ccccc2)cs1	0.95	nt
CCOc1ccc(OCC)c(NC(=O)C(NS(=O)(=O)c2cccs2)C(C)C)c1 (stereo unspecified)	0.05	-0.83

Two of these compounds in another layout.
structure | AID504770 | CapD inh
O=C1/C(=C/c2cccs2)CSc2ccc(F)cc21 | -0.5 | -1.1
CCOC(=O)c1c(NC(=S)Nc2ccc(C)cc2)sc2c1CC(C)(C)OC2 | nt | -0.16

Next records
SMILES	AID504770	CapD inh
N#CCCN(CC1CCCO1)S(=O)(=O)c1ccc(Oc2cccc(Cl)c2C#N)cc1 (stereo unspecified)	nt	-1.1
COC(=O)CNC(=O)c1nn(-c2ccc(OC)cc2OC)c(=O)c2ccccc12	-1.1	-0.53
CSC(=NS(=O)(=O)c1cc(OCC(F)(F)F)ccc1OCC(F)(F)F)SC	nt	-0.8
COc1ccc(S(=O)(=O)N(Cc2cc3cc4c(cc3n3nnnc23)OCO4)C2CCCCC2)cc1	-0.3	nt
O=C(On1c(-c2ccccc2)cc2ccccc21)c1ccco1	-0.25	4.5
c1ccc2[nH]c(CCc3nc4ccccc4s3)nc2c1	0.4	-0.01
Cc1ccc(-n2ncc3c(NCc4ccc5c(c4)OCO5)ncnc32)cc1	0.4	-0.39
